# Compound activity deposited in PubChem by National Center for Advancing Translational Sciences (NCATS).
# PMP22 txn: modulates PMP22 transcription in S16 Schwann cells | S16 Pmp22-F2sN Schwann cells (luciferase reporters placed in the Pmp22 gene), FLuc/NLuc coincidence luminescence, 24 h | Potency, µM (highest dose often 57.5 µM), for the others: top-dose activity change, negative = inhibition, usual class: inhibitors | 43,000 compounds, 2% hits; active = clear falling dose curves in both reporters; inconclusive = both reporters move, but less clearly or upward; inactive = either reporter flat; the % is the NLuc reporter signal; further: on the % scale 0 is the no-effect control and ±100 the full control effect; some results filed as inactive show a strong effect at the top dose
#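 Luminescent read-out of sequential FLuc and NLuc signals from a reporter embedded in the Pmp22 3' UTR of S16 Schwann cells, taken after 24 h compound exposure at 37C; compounds reducing both signals score as inhibitors of expression.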
# HTT prom inh: HTT promoter inhibition; HEK293 HTT promoter firefly luciferase reporter (activity 0% = vehicle and -100% = no light), 24 h; Potency, µM (top dose mostly 57.5 µM), inactives show top-dose activity change, negative = inhibition, most hits filed as inhibitors; 48,000 compounds, 0.93% hits; AID 1508623; active means well fitted inhibition curve with a large enough effect; inconclusive means small, poorly fitted or top-dose-only effect; inactive means no such curve, though single readings can be large or run the other way; further: nearly all actives have a fitted effect of over 50% in size
#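 HEK293 Fluc reporter, 2,500 cells/well, 24 h pre-culture; cpds up to 57.5 uM final, 24 h 37 degrees C; Dual-Glo, 10 min RT; normalized vehicle = 0%, zero RLU = -100%.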
# * = called active by the depositor; ? = inconclusive; · = not tested or not shown; [ ] = remark or other dose. Potency means the concentration at half of the fitted maximal effect.
entry	SMILES	PMP22 txn	HTT prom inh
1	CC(=O)c1cccc(NC(c2ccc(F)cc2)c2nnc(-c3ccccc3)o2)c1 (centres undefined)	-70.6%	-27.1%
2	O=S(=O)(NCC(Nc1ccc(Cl)cc1)c1ccccc1)c1ccccc1 (centres undefined)	?	?
3	COc1ccc(-c2nc(Cn3c(=O)cc(C)c4c(C)nn(-c5ccccc5)c43)c(C)o2)c(OC)c1	-3.5%	-17.3%
4	CC1CCCN(CCCNC(=O)c2cc3c(Cl)nc4ccccc4c3s2)C1 (centres undefined)	?	-27.0%
5	Cc1cc(C)c(S(=O)(=O)n2cnc(C)c2)c(C)c1	8.0%	1.3%
6	Cc1cccc(NC(=O)CS(=O)(=O)c2nc(-c3ccccc3)cn2-c2cccc(Cl)c2)c1C	?	?
7	CCN(CC)c1ccc(NS(=O)(=O)c2ccc3c(c2)CCCN3C(C)=O)c(C)c1	?	?
8	Cc1oc(-c2ccccc2F)nc1CS(=O)CC(=O)NC(C)C (centres undefined)	-28.3%	3.5%
9	O=S(=O)(c1ccccc1)c1nc(-c2cccs2)oc1SCc1ccc(F)cc1	-4.9%	-13.4%
10	CSc1ncc(C(=O)NCc2ccc(Cl)cc2)c(C(F)(F)F)n1	?	-11.9%
11	CCOC(=O)c1ccc(NC(=O)c2c(NCc3cccc(OC)c3)sc3c2CCC3)cc1	?	7.0%
12	CCN(CC)C(=O)Cn1c(=O)n(-c2ccc(Cl)c(Cl)c2)c(=O)c2c(C)c(C(=O)N(CC)CC)sc21	29.6%	0.0%
13	CCc1ccc(OC(C)C(=O)N2CCC(c3nc4ccccc4s3)CC2)cc1 (centres undefined)	?	?
14	Fc1ccc(CNCCCSc2nnnn2-c2ccccc2)cc1	?	-15.5%
15	CCOc1ccc(CNC(=O)CCC(=O)N2CC3CCCN3c3ccccc32)cc1 (centres undefined)	-10.8%	10.8%
16	Cc1c(C(=O)OC2CCCC2)[nH]c2c1C(=O)CC(c1ccc(Cl)cc1)C2 (centres undefined)	?	-2.5%
17	COc1cccc(NC(=O)CC(=O)Nc2ccc3nc4n(c(=O)c3c2)CCCCC4)c1	1.2%	-8.9%
18	CCOC(=O)c1c(C)[nH]c(C)c1S(=O)(=O)N1CCC(C(=O)N2CCN(c3cccc(Cl)c3)CC2)CC1	0.0%	?
19	COC(=O)c1ccccc1-n1cc2c(c1-c1cccc(C)c1)c(=O)n(C)c(=O)n2C	-15.5%	-25.0%
20	Cc1sc2c(c1C)c(=O)n(-c1ccc(Cl)cc1)c(=O)n2Cc1cc(=O)n2ccccc2n1	-27.1%	-11.9%
21	CCCOc1ccc2c(c1)CC[C@@H]1[C@@H]2CC[C@]2(C)C(OC)CC[C@@H]12 (some centres undefined)	·	3.6%
22	COc1cc(OC)cc(C(=O)N2CCN(C(=O)COc3ccccc3)CC2)c1	-5.1%	3.9%
23	O=c1c2sc3ccccc3c2n(Cc2ccccc2F)c(=O)n1Cc1ccccc1	-31.9%	-8.4%
24	Fc1ccc(Cc2cn3cc(-c4ccccc4)nc3s2)cc1	-20.8%	?
25	COc1cccc(C2CC(=O)Nc3c2c(=O)n(C)c2nc4ccccc4n32)c1 (centres undefined)	-6.8%	-12.5%
26	CCc1ccc(CNC(=O)C2CCN(C(=O)c3ccc(-n4c(C)cc5ccccc54)s3)CC2)cc1	-40.5%	?
27	O=C(c1ccc2c(c1)N(Cc1cccc(Cl)c1)C(=O)c1ccccc1S2=O)N1CCN(c2cccc(C(F)(F)F)c2)CC1 (centres undefined)	10.8µM*	-42.8%
28	CC(C)c1ccc(NC(=O)Cn2c(=O)oc3cc(S(=O)(=O)N4CCCC4)ccc32)cc1	?	14.1µM*
29	Cc1cc(NC(=O)CN(C)S(=O)(=O)c2ccc3c(c2)CCCC(=O)N3)ccc1Br	?	25.1µM*
30	Cc1cccc(N2CCN(C(=O)CCS(=O)(=O)c3ccc4c(c3)CC(=O)N4C)CC2C)c1 (centres undefined)	-19.1%	-21.6%
31	CC(C)Oc1ccc(C(=O)Nc2ccc3c(c2)CCCN3C(=O)c2cccs2)cc1	?	?
32	CCOC(=O)c1sc(N2C(=O)c3oc4cc(C)c(C)cc4c(=O)c3C2c2ccc(C)cc2)nc1C (centres undefined)	13.2%	-9.1%
33	CCOc1ccc(NC(=O)Cn2c(=O)n(Cc3ccccc3)c(=O)c3c4c(sc32)CN(C(C)=O)CC4)cc1	?	-8.3%
34	COc1ccc(N2CCN(C(=O)c3cccc(NC(=O)c4nsc5ccccc45)c3)CC2)cc1	?	-29.9%
35	CCOc1ccc(CCNC(=O)C2CCN(Cc3nc(-c4ccccc4C)oc3C)CC2)cc1OCC	?	-4.7%
36	Cc1ccc(S(=O)(=O)NCCc2nnc3ccc(SCC(=O)Nc4ccc(OC(F)(F)F)cc4)nn23)cc1	-16.8%	-21.5%
37	COc1ccc(NC(=O)N2CCC(CN3CCCC3)CC2)c(OC)c1	0.1%	-14.5%
38	CN(C)c1ccc(C(CNS(=O)(=O)c2ccc(F)cc2)N2CCCC2)cc1 (centres undefined)	-5.9%	0.6%
39	COc1cc(NC(=O)c2cc3nc(-c4ccc(C)cc4)cc(C(F)(F)F)n3n2)cc(OC)c1OC	?	-8.8%
40	CCOc1ccc(-n2nc3ccc(NC(=O)c4cccc(F)c4)cc3n2)cc1	1.2%	-16.4%
41	Cc1nc(Nc2ccc(Cl)cc2)cc(-c2ccccc2)n1	-21.8%	37.4%[activator]
42	COC(=O)c1ccccc1NC(=O)CN(c1ccccc1OC)S(C)(=O)=O	-4.2%	-13.9%
43	COC(=O)c1ccc(C2c3c(-c4ccccc4O)n[nH]c3C(=O)N2Cc2cccnc2)cc1 (centres undefined)	-12.4%	-9.2%
44	Cc1ccc2oc(-c3cccc(NC(=O)c4cccc5c(Cl)cccc45)c3)nc2c1	-7.2%	-0.7%
45	CCCCn1c(SCC(=O)Nc2ccc(OCC)cc2)nc2ccsc2c1=O	-26.5%	2.9%
46	CCc1nc2ccc(C(=O)N3CCN(c4cc(Cl)ccc4C)CC3)cc2nc1CC	?	?
47	CCc1ccc(OCC(=O)Nc2ccc3oc(-c4ccc(OC)cc4)nc3c2)cc1	-10.2%	39.8%
48	COc1cccc(CNC(=O)CCn2cnc3ccccc3c2=O)c1	-3.9%	-9.5%
49	CCOC(=O)c1nnn(C(CC)C(=O)Nc2c(C)cccc2C)c1C(=O)OCC (centres undefined)	-7.3%	-6.8%
50	CN(C)CCOc1ccc(C(=C(CCCl)c2ccccc2)c2ccccc2)cc1	·	1.1%

# (more compounds)
entry	SMILES	PMP22 txn	HTT prom inh
51	O=c1cc(N2CCN(c3ccc(F)cc3)CC2)[nH]c(=O)n1-c1cccc(Br)c1	?	-28.3%
52	CCOc1ccccc1NC(=O)NCCn1c(=O)oc2ccc(C)cc21	0.8%	-10.3%
53	Cc1ccccc1NC(=O)c1ccc(F)c(S(=O)(=O)N(C)C2CCCCC2)c1	5.01µM*	?
54	O=C(Nc1cccc(Br)c1)N1CCC(CN2CCCCC2)CC1	-1.4%	3.7%
55	O=c1c2ccccc2n2c(-c3ccc(Cl)cc3)nnc2n1CCc1ccccc1	-36.5%	-8.6%
56	Cc1ccc(CCNC(=O)CN2C(=O)COc3ccc(S(=O)(=O)N4CCC(C)CC4)cc32)cc1	-8.1%	-26.9%
57	COc1ccc(-c2noc(CN(C(=O)c3cc(OC)c(OC)cc3OC)C(C)C)n2)cc1	-7.6%	-19.9%
58	COc1cccc(CC(=O)Nc2ccc(-c3nc4ccccc4s3)cc2Cl)c1	-0.8%	-21.1%
59	COc1cc(-c2noc(-c3ccc(NC4CCCC4)c([N+](=O)[O-])c3)n2)cc(OC)c1OC	-31.0%	-13.5%
60	O=C(CCS(=O)(=O)c1cc(Br)cc2c1N(C(=O)C1CC1)CC2)N1CCN(c2ccc(F)cc2)CC1	?	-13.5%
61	COc1ccc(S(=O)(=O)N(CCc2ccccc2)CC(=O)NCc2ccc(C)cc2)cc1	-10.0%	?
62	COc1cccc(NC(=O)Cn2c(=O)n(-c3cccc(OC)c3)c(=O)c3sc4ccccc4c32)c1	?	?
63	COc1ccccc1OCC(=O)N(Cc1ccc(N(C)C)cc1)CC1CCCO1 (centres undefined)	-21.7%	-4.9%
64	CCc1ccccc1NC(=O)CSc1ncc2c(n1)-c1ccccc1N(Cc1ccc(C)cc1)S2(=O)=O	?	-19.5%
65	Cc1cc(F)ccc1NC(=O)CCSc1nc(-c2ccco2)cc(C(F)(F)F)n1	-54.6%	-17.4%[11.5 µM]
66	Cc1ccc2nc(CSc3nnc(NC(=O)COc4ccccc4)s3)cc(=O)n2c1	-7.1%	?
67	CCOC(=O)c1sc2ccccc2c1S(=O)(=O)N1CCN(c2cc(C)ccc2C)CC1	5.0%	0.0%
68	Cc1ccc(CCNC(=O)Cn2c(-c3cccs3)cc3ccccc32)cc1	-15.3%	?
69	O=C(CCn1c(=O)c2cccn2c2cccnc21)N1CCN(c2ccc(Cl)cc2)CC1	7.9%	-12.2%
70	CCC(C(=O)NCCc1ccccc1)n1nc(C)c2sc3ccccc3c2c1=O (centres undefined)	2.4%	-7.9%
71	COc1cccc2c1cc1c(=O)n(CC(=O)O)nc(C)n12	7.1%	8.6%
72	CCc1nnc(NS(=O)(=O)c2ccc(N)cc2)s1	·	1.3%
73	CC1CCCN(c2cc3c(cc2F)c(=O)c(S(=O)(=O)c2cccc(Cl)c2)cn3C)C1 (centres undefined)	-3.4%	-19.6%
74	Nc1ccc([N+](=O)[O-])c(C(F)(F)F)c1	·	1.4%
75	Cc1cccc(NC(=O)c2ccc3nc(C(C)C)oc3c2)c1C	-7.5%	?

# Quoted from the listing.
# no. 56 | PMP22 txn = -8.1%
# no. 54 | HTT prom inh = 3.7%
# no. 71 | HTT prom inh = 8.6%

# Remaining list, next part:
entry	SMILES	PMP22 txn	HTT prom inh
76	Cc1cc(Oc2nc3ccccn3c(=O)c2/C=C(\C#N)c2nc3ccccc3s2)ccc1Cl	-15.2%	-0.5%
77	CCOc1ccc2nc(N3CCC(C(=O)Nc4ccc(Br)cc4F)CC3)sc2c1	?	7.4%
78	Cc1ccc(-n2ncc3c(N4CCCCC4)ncnc32)cc1	2.7%	-91.8%
79	Cc1cccc(C)c1-n1ncc(C(=O)N2CCN(c3ccccn3)CC2)c1C1CCN(C(=O)OC(C)(C)C)CC1	?	-31.1%
80	COc1ccc(CN2CCc3nc(N4CCN(c5ccc(F)cc5)CC4)ncc3C2)c(OC)c1OC	13.4µM*	1.58µM*
81	COc1ccc(Nc2nc3c(S(=O)(=O)c4ccccc4)nnn3c3ccc(Cl)cc23)cc1OC	-9.0%	-16.9%
82	CN1Cc2cc(C(=O)N3CCC(C4CCNCC4)CC3)ccc2NC(CC(=O)O)C1=O (centres undefined)	·	0.3%
83	O=C(Nc1ccc(OC(F)(F)F)cc1)c1nc2ccccc2nc1N1CCCCC1	-17.7%	-24.0%
84	CCOc1ccc(CNC(=O)C2CCCCN2S(=O)(=O)c2ccc(F)cc2)cc1OC (centres undefined)	-0.3%	-23.8%[11.5 µM]
85	CCOc1ccc(NC(=O)CSc2nc(-c3cccs3)cc(C(F)(F)F)c2C#N)cc1	-12.1%	-4.1%
86	CCOC(=O)c1sc2ncn(CC(=O)Nc3cc(Cl)ccc3C)c(=O)c2c1C	-2.9%	2.7%
87	Cc1cccc(C)c1-n1ncc(C(=O)NCCN2CCOCC2)c1C1CCN(C(=O)OC(C)(C)C)CC1	-8.7%	-23.3%
88	CCOc1ccccc1N(CC)C(=O)Cn1ncc2c([nH]c3ccccc32)c1=O	-31.4%	?
89	CC(C)c1ccc(NC(=O)Cn2c(=O)n(Cc3nc(-c4ccccc4)no3)c(=O)c3cc4c(cc32)OCO4)cc1	-25.9%	9.3%
90	CCc1ccccc1NC(=O)CN1C(=O)COc2ccc(S(=O)(=O)Nc3ccccc3)cc21	-14.0%	-11.5%
91	COc1cccc(C(c2sc3nc(-c4ccco4)nn3c2O)N2CCN(C)CC2)c1 (centres undefined)	22.8%	11.5%
92	CCCc1nnc(NC(=O)Cc2coc3c(C)c(C)ccc23)s1	-8.9%	-8.1%
93	COc1cccc(CNC(=O)CCCn2ncn3c(cc4occc43)c2=O)c1	-18.8%	-19.0%
94	Cn1c(=O)n(Cc2ccccc2Cl)c(=O)c2c1nc1n2CCN1c1ccccc1	1.6%	-0.4%
95	Cc1ccccc1-c1noc(-c2ccc(NCc3ccco3)c([N+](=O)[O-])c2)n1	?	3.0%
96	Cc1ccc(S(=O)(=O)c2cn(CC(=O)Nc3ccccc3C)c3cc4c(cc3c2=O)OCO4)cc1	-7.0%	-11.4%
97	CCOc1ccc(C2c3c(oc4cc(C)c(C)cc4c3=O)C(=O)N2c2ccccn2)cc1 (centres undefined)	?	0.9%
98	COc1ccc(Nc2cc(C(=O)NCc3cccs3)c3ccccc3n2)cc1	-1.8%	13.6%
99	Cc1ccc(-n2ncc(C(=O)NCCN3CCN(C)CC3)c2C2CCN(C(=O)OC(C)(C)C)CC2)cc1	-28.6%	-12.0%

# Profiles as entered above. Order of screens: PMP22 txn | HTT prom inh
# Entry for CCOc1ccccc1N(CC)C(=O)Cn1ncc2c([nH]c3ccccc32)c1=O = -31.4% | ?
# Entry for CCCc1nnc(NC(=O)Cc2coc3c(C)c(C)ccc23)s1 = -8.9% | -8.1%
# Entry for COc1ccc(Nc2nc3c(S(=O)(=O)c4ccccc4)nnn3c3ccc(Cl)cc23)cc1OC = -9.0% | -16.9%
